Source: PubChem BioAssay
Mtb betalactam – beta-lactam sensitization of Mtb H37Rv; 0.27% of 330,000 active; M. tuberculosis H37Rv growth with meropenem, percent inhibition; hits of this screen are not shown here; inhibition, % at 25 µM;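 active = about 74% or more and at least 40 points above the plate without the antibiotic, then above 30% in a dose series; inconclusive = first-round hits that could not be retested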;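 also: growth measured after seven days incubation then overnight dye step; 0% = bacteria only wells and 100% = bacteria with antibiotic; twin plates without the antibiotic show which effects depend on it; some results filed as inactive read as strong as hits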
Arbovirus anti – blocks arbovirus infection; arbovirus infection cell-based antiviral screen; inhibition, % at 10 µM; 0.37% of 200,000 active;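 active = inhibition from about 30%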;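 also: bluetongue infection of BSR cells; cell survival read as ATP light after 72 h; 0% = infected wells without compound and 100% = uninfected wells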
YopH inh – blocks Yersinia enterocolitica YopH tyrosine phosphatase. fluorescence Ex485/Em525. inhibition, %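 (about 10 µM by stock and volumes)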. 0.16% of 140,000 active. AID 898;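 active = inhibition of 50% or more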;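 also: controls were vehicle for no effect and minimum signal wells for full effect; inactives centre near -20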
Mtb growth – M. tuberculosis H37Rv growth inhibitors, H37Rv strain (AID 1626); M. tuberculosis H37Rv growth inhibition; higher % means a stronger effect; inhibition, % at 10 µM, or IC50 in µM where a hit was titrated; 0.95% of 220,000 active;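 active = confirmed in a dose series; inconclusive = inhibition above 80% but not taken into the dose series; inactive = below 80% or under 30% at every dose of the series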;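 also: bacteria incubated seven days before Alamar blue readout; 0% = bacteria only wells and 100% = bacteria with antibiotic wells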
RecA splice inh – inhibitors of M. tuberculosis RecA intein splicing; cell-free RecA intein splicing, fluorescence; AID 2221; 0.75% of 290,000 active; P9WHJ3; inhibition, %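 (about 9 µM by stock and volumes)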; in the data active = inhibition above about 30%; inconclusive = no clear call, values can overlap the other calls;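 also: 0% = vehicle wells and 100% = reference inhibitor control wells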
Target sequence (P9WHJ3 whole entry, looked up, canonical isoform): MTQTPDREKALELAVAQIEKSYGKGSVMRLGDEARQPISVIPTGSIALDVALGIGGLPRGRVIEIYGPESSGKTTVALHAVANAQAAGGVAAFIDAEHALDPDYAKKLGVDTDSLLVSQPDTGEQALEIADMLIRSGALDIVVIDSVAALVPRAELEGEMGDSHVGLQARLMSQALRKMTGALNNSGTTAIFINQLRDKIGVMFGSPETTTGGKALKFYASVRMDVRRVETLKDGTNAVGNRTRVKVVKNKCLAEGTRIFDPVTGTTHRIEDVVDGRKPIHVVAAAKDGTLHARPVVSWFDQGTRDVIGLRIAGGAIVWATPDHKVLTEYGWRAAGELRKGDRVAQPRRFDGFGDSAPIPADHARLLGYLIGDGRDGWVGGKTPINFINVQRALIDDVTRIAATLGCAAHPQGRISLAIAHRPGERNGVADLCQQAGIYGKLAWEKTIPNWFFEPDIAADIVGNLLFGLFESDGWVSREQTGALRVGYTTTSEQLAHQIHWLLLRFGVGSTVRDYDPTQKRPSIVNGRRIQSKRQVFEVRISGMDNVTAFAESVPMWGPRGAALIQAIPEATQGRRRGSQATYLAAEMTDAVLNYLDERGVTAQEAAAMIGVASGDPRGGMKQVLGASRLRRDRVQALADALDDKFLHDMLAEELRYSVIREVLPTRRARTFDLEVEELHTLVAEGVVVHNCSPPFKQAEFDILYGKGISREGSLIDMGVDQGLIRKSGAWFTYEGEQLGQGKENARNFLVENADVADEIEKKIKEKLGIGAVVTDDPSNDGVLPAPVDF
Arbovirus anti repeat – second read-out of Arbovirus anti, no call of its own (marks repeat the call); inhibition, %; measured here: 10K subset replicate screen; many hits read low in the repeat;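 first of two repeat runs on a subset; 0% = infected and 100% = uninfected wells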
Starred values were filed as active, the others as inactive; ? = inconclusive; . = not tested or not shown.

SMILES | Mtb betalactam | Arbovirus anti | YopH inh | Mtb growth | RecA splice inh | others
COC(=O)CCC(=O)OC1(C)C(=O)C=C2C=C(C3CC3)N(CCCCO)C=C2C1=O (stereo unspecified) | 2 | . | . | -11% | 21
COc1ccc(OC)c(-c2csc(NC(=O)C3=COCCO3)n2)c1 | 19 | . | . | . | 0.3
Cc1cccc(C(=O)NCC(=O)OCC(=O)c2ccc(Cl)s2)c1 | 7 | . | . | . | -0.3
CCn1c(SCC(=O)NC2CCCC2)nnc1C(C)NC(=O)c1ccccc1Br (stereo unspecified) | -6 | . | . | . | -2.6
Cc1ccc(S(=O)(=O)N2CCN(C(=O)CC(C)n3nc(C)c(Cl)c3C)CC2)cc1 (stereo unspecified) | -1 | . | . | . | -1.1
COc1ccc(C(=O)CN2CCN(c3ncccn3)CC2)cc1 | 1 | . | . | . | -0.7
COc1ccccc1/C=N/n1c(C)nnc1-n1nc(C)cc1C | -2 | 8 | 3 | -11% | 1.0
Cc1ccc(N(C(=O)c2csnn2)C(C(=O)NC(C)(C)C)c2ccccn2)cc1 (stereo unspecified) | -9 | -5 | . | -2% | -4.0
COc1ccc(Cl)cc1NC(=S)N1CCN(S(C)(=O)=O)CC1 | -7 | . | . | -6% | 5.7
O=C1c2ccccc2C(=O)c2cc(S(=O)(=O)Nc3ccccc3)ccc21 | 14 | -6 | -26 | 3% | 32*
Cc1ccc(NS(=O)(=O)c2ccc(NC(=O)c3cccs3)cc2)c(C)c1 | 2 | 0 | -21 | -12% | -0.4
O=C(O)CN1C(=O)SC(Nc2ccc(C(=O)O)cc2)C1=O (stereo unspecified) | -9 | 2 | -31 | -3% | -3.9
Cn1c(=O)c2c(nc(NCCNC(=O)c3ccco3)n2Cc2ccc(F)cc2)n(C)c1=O | -4 | . | . | . | -4.1
CCOC(=O)c1sc(-c2ccc(Br)cc2)cc1N | 33 | 13 | -23 | 3% | 2.2
CCn1c(CNC(=O)c2cccs2)nnc1SCC(=O)NCCc1ccccc1 | . | 4 | 3 | -9% | -1.2
CC1CC(C)CN(C(=O)/C=C/c2ccc([N+](=O)[O-])s2)C1 (stereo unspecified) | . | -20 | . | 10µM* | -1.7
O=C(COC(=O)c1ccc(NS(=O)(=O)c2cccs2)cc1O)Nc1ccc(F)cc1 | 5 | . | . | 0% | -1.1
COc1cccc(OCc2nc(-c3cccc([N+](=O)[O-])c3)no2)c1 | -4 | 1 | . | 18% | -0.6
Cc1ccc(C2=NN=C(NC(=O)CSc3nncn3C)SC2)cc1 | -3 | -18 | . | 0% | -9.3
Cc1ccc(C2C(S(C)(=O)=O)=C(O)C(=O)N2c2ccccc2)cc1 (stereo unspecified) (tested in a mixture with another compound) | 15 | 5 | -8 | 4% | 0.7

Filtered by structure: the entries above containing a nitro group on carbon (2)
SMILES | Mtb betalactam | Arbovirus anti | YopH inh | Mtb growth | RecA splice inh | others
CC1CC(C)CN(C(=O)/C=C/c2ccc([N+](=O)[O-])s2)C1 (stereo unspecified) | . | -20 | . | 10µM* | -1.7
COc1cccc(OCc2nc(-c3cccc([N+](=O)[O-])c3)no2)c1 | -4 | 1 | . | 18% | -0.6

Continuation:
SMILES | Mtb betalactam | Arbovirus anti | YopH inh | Mtb growth | RecA splice inh | others
O=C(O)c1ccccc1OCCOCCOc1ccccc1C(=O)O | 16 | 5 | -56 | -4% | .
COc1ccccc1C(=O)C1CCCN(C(=O)CSc2ccccn2)C1 (stereo unspecified) | 2 | 3 | . | -5% | 0.6
CN(C)CCCN1C(=O)C(O)=C(C(=O)c2cccs2)C1c1cccc([N+](=O)[O-])c1 (stereo unspecified) | -7 | 3 | . | -1% | -2.0
COc1cccc(/C=C2\SC(=S)NC2=O)c1OS(=O)(=O)c1ccc(NC(C)=O)cc1 | -1 | 10 | -16 | -11% | 3.2
CCOc1ccc(NC(=O)CN(C)C(=O)c2cn(-c3ccc(F)cc3)nc2-c2cccc(OC)c2)cc1OCC | 0 | . | . | . | -1.9
CCC(=O)N1C(C(=O)N2CCCC2)CSC1c1ccc(OC)cc1 (stereo unspecified) | 0 | 9 | -13 | . | . | Arbovirus anti repeat=0
CCOC(=O)c1c(NC(=O)CSc2ncnc3[nH]ncc23)sc2c1CCC(C)C2 (stereo unspecified) | 2 | -6 | . | -12% | 2.2
CC1=C(C(=O)OCc2ccccc2)C(c2ccccc2OS(=O)(=O)c2ccc(C)cc2)NC(=O)N1CCCC(=O)O (stereo unspecified) | 10 | . | . | 11% | 0.5
Cc1nc(Nc2ccc3c(c2)OCCO3)c2nnn(Cc3ccccc3Cl)c2n1 | 21 | 51* | -31 | 77% | 10.0
Cc1ccc(OCC(=O)NCc2ccco2)cc1C | -12 | -2 | -3 | 14% | 1.9

Molecules shown so far that have bromine, in the order listed:
SMILES | Mtb betalactam | Arbovirus anti | YopH inh | Mtb growth | RecA splice inh | others
CCn1c(SCC(=O)NC2CCCC2)nnc1C(C)NC(=O)c1ccccc1Br (stereo unspecified) | -6 | . | . | . | -2.6
CCOC(=O)c1sc(-c2ccc(Br)cc2)cc1N | 33 | 13 | -23 | 3% | 2.2

Next compounds:
SMILES | Mtb betalactam | Arbovirus anti | YopH inh | Mtb growth | RecA splice inh | others
COc1ccc(-c2nc3c(c4nnc(SC(C)C(=O)Nc5ccccc5)n24)COC(C)(C)C3)cc1 (stereo unspecified) | 7 | -3 | -37 | 4% | -2.4
CN1CCN(c2nc(-c3cccs3)cs2)CC1 | -10 | 5 | . | -4% | -0.1
CCN(CC(=O)Nc1c(F)cccc1F)C(=O)c1cc(S(=O)(=O)NCc2ccccc2)ccc1C | -10 | . | . | . | 3.2
O=c1cc(CN2CCN(c3ccccc3)CC2)c2cc(O)c(-c3ccccc3)cc2o1 | 3 | -15 | 20 | 7% | -1.7
C[C@@H]1NC(=O)c2cc([N+](=O)[O-])cc(I)c2OCC[C@@H](C(=O)NC(CC(=O)O)C(N)=O)NC(=O)[C@H](CCC(=O)O)NC1=O (stereo partly specified) | -7 | -1 | -8 | 1% | .
CCn1c(=O)c(C(=O)Nc2ccccc2C)c(O)c2ccccc21 | -2 | 4 | 35 | -6% | 2.1
COc1ccc(C2CC(=O)N(c3ccccc3)C3=C2C(=O)CCC3)cc1 (stereo unspecified) | -3 | . | . | 3% | 2.2
Cn1c(=O)c2c(nc(Br)n2CCSc2ncccn2)n(C)c1=O | -1 | 5 | -18 | -11% | 0.3
CC12CC(NC(=O)N1Cc1ccccc1)c1ccccc1O2 (stereo unspecified) | 10 | -7 | -30 | -4% | 2.5
c1ccc2c(c1)nc(N1CCOCC1)c1c3ccccc3[nH]c21 | 94 | -1 | -27 | 63% | 0.5

Reprinted from the part before: three compounds; new compounds follow.
SMILES | Mtb betalactam | Arbovirus anti | YopH inh | Mtb growth | RecA splice inh | others
Cn1c(=O)c2c(nc(Br)n2CCSc2ncccn2)n(C)c1=O | -1 | 5 | -18 | -11% | 0.3
CC12CC(NC(=O)N1Cc1ccccc1)c1ccccc1O2 (stereo unspecified) | 10 | -7 | -30 | -4% | 2.5
c1ccc2c(c1)nc(N1CCOCC1)c1c3ccccc3[nH]c21 | 94 | -1 | -27 | 63% | 0.5
C=CCNCCCCOc1ccccc1-c1ccccc1 | -5 | -16 | -9 | 0% | 1.1
CSc1nc2c(cc1C#N)CCCCC2 | 2 | -2 | -7 | 9% | 0.0
COc1ccc(S(=O)(=O)N(C)C)cc1NCC(=O)Nc1cccc(C#N)c1 | 6 | 0 | . | -9% | 6.2
Cc1ccc(SCc2nc3ncccn3c2Br)cc1 | 3 | . | . | -5% | 3.5
COc1ccc(C)cc1Nc1nc(N)c2ccccc2n1 | 1 | . | . | . | -2.1
N/C(=N\OC(=O)c1ccc2c(c1)OCO2)c1cccc(Br)c1 | 78 | -2 | . | ? | -0.2
COc1cc(C(C)=O)ccc1COc1ccc(C(=O)OCC(=O)NC2CCS(=O)(=O)C2)cc1OC (stereo unspecified) | 1 | 1 | -29 | 2% | -0.1
O=C1C=C(Nc2ccccc2)C(=O)c2ccccc21 | 97 | -24 | . | 12µM* | 13 | Arbovirus anti repeat=-14
CCOC(=O)c1c(NC(=O)Nc2ccccc2)sc(C)c1C | -4 | 0 | -98 | -3% | -0.1
Cc1c(CN2CCC(C)CC2)c(=O)n(-c2ccccc2)n1C | -5 | 5 | -36 | -5% | -1.6

2 entries picked at random from those above:
SMILES | Mtb betalactam | Arbovirus anti | YopH inh | Mtb growth | RecA splice inh | others
Cc1ccc(SCc2nc3ncccn3c2Br)cc1 | 3 | . | . | -5% | 3.5
COc1cc(C(C)=O)ccc1COc1ccc(C(=O)OCC(=O)NC2CCS(=O)(=O)C2)cc1OC (stereo unspecified) | 1 | 1 | -29 | 2% | -0.1

Continued:
SMILES | Mtb betalactam | Arbovirus anti | YopH inh | Mtb growth | RecA splice inh | others
COC(=O)c1ccc(COc2ccccc2/C=C(\C#N)C(=O)Nc2ccc(C)cc2)cc1 | -1 | -8 | -23 | 9% | -4.3
CCN(CC)CCNc1nc2c(c(=O)[nH]c(=O)n2C)n1CC(O)COc1ccc(Cl)cc1Cl (stereo unspecified) | -24 | 3 | -13 | -13% | 1.4
O=[N+]([O-])c1cc(S(=O)(=O)N2CCCC2)ccc1SCCO | -8 | 10 | . | -2% | 1.1
O=C(Nc1nccs1)C1CCN(S(=O)(=O)c2cccs2)CC1 | -5 | -3 | . | 3% | 1.1
Cc1ccc2c(c1)c(N=Nc1cccc(C(=O)O)c1)c(O)n2C | 2 | 22 | . | 1% | 3.2
COc1ccc(Nc2nc(CC(C)=O)ns2)cc1OC | -14 | 5 | -45 | -7% | 1.3
COc1ccc(C(=O)N/N=C/c2ccc3cccc(O)c3n2)cc1 | 90 | -5 | . | 64% | -1.3
CCc1cc(CNC(=O)CC2C(=O)NCCN2Cc2ccccc2C(F)(F)F)on1 (stereo unspecified) | -1 | . | . | -10% | -0.4
CCN(CC)CCNC(=O)c1c(O)c2ccccc2n(Cc2ccccc2)c1=O | 5 | -18 | 2 | 6% | 2.2
NC(=O)C1CC12c1ccccc1-c1ccccc12 (stereo unspecified) | -6 | . | . | . | 1.0
O=C(NC(=S)NNC(=O)c1ccc(Cl)cc1Cl)c1cccnc1 | 94 | -7 | -31 | -5% | 4.7
CC(=O)NC1CC2CCC(C1)N2Cc1ccc(C)cc1 (stereo unspecified) | ? | -2 | -46 | -8% | -0.7
COc1ccc(OC)c(NC(=S)NCC(c2cccnc2)N2CCOCC2)c1 (stereo unspecified) | 1 | -6 | . | -4% | -2.2
Cc1ccc(CCc2nnc(SCC(=O)Nc3cccc(Cl)c3)n2-c2ccccc2)o1 | 1 | 1 | -38 | . | 4.6
O=C(CN1C(=O)NC2(CCCC2)C1=O)N1CCN(S(=O)(=O)c2cccc(F)c2)CC1 | -3 | . | . | . | -0.1
CC1=NN(C(=O)c2c(Br)c(C)nn2C)C(O)(C(F)(F)F)C1 (stereo unspecified) | 0 | -3 | -45 | 6% | -0.4
O=C1CC(c2ccccc2)CN1 (stereo unspecified) | -4 | . | . | -6% | 0.2
CCc1cccc2c(C(=O)C(NC(C)CC)c3ccccc3)c[nH]c12 (stereo unspecified) | 11 | . | . | . | 4.9
CN1C(=O)C(C)(C)c2cc(S(=O)(=O)N(C)Cc3ccccc3)ccc21 | -1 | . | . | . | -0.7
O=C(CN1CCCCCC1)NCC1CCCO1 (stereo unspecified) | -2 | 0 | . | 2% | -0.1
CCOC(=O)N1CCC(N2Cc3cccc(C(=O)NCC4CCN(CC(C)C)C4)c3C2=O)CC1 (stereo unspecified) | -2 | -6 | -37 | -1% | .
COc1ccc(/C=N/NC(=S)Nc2cccc(C(=O)O)c2)cc1OC | -5 | -9 | -14 | -1% | 0.1
CC1(C)OC(c2ccccc2)=C/C(=C/C=C2C(=O)c3ccccc3C2=O)O1 | 16 | -4 | . | 8% | -7.0
Cn1c(NC2CCCCC2)cc(=O)n(C)c1=O | 0 | . | . | . | 0.0
COc1ccccc1C(=O)N1CCN(C(=O)COc2cccc(C)c2)CC1 | -8 | 18 | 3 | -8% | 0.4
CCCOC(=O)Nc1ccccc1C(N)=O | 0 | -4 | -18 | -9% | 0.2
CC(=O)NCCn1c(SCc2cc(F)ccc2F)nc2ccccc2c1=O | -1 | 1 | -3 | 5% | 1.5
C/C(=N\Nc1nccnc1Cl)c1ccc([N+](=O)[O-])cc1 | -1 | -10 | -6 | 5% | -1.1
O=C(CN1C(=O)NC2(CCCc3ccccc32)C1=O)c1ccc(Br)cc1 (stereo unspecified) | 1 | . | . | . | 6.6
N=c1c(C(=O)NC2CCCC2)cc2c(=O)n3ccccc3nc2n1C1CCCC1 | 1 | -7 | -40 | 0% | -466
O=C(Nc1ccccc1Cl)c1ccc2c(c1)N(Cc1ccc(F)cc1)C(=O)CS2=O (stereo unspecified) | -8 | 2 | -25 | . | 1.3 | Arbovirus anti repeat=3
CCNC(=O)NC(=O)COC(=O)c1ccccc1SCC(=O)NC(=O)NCC | 16 | 6 | -34 | 2% | -22
O=C1COc2ccc3ccccc3c21 | 6 | . | . | . | -2.4

The list is partial; rates above refer to the full screens.
